Screening results: PubChem BioAssay, National Center for Advancing Translational Sciences (NCATS)
RE007 growth inh = less growth of the S. pombe RE007 Vpr strain | actives 0.21% (n = 360,000) | S. pombe RE007 Vpr strain, BacTiter-Glo ATP luminescence, 24 h; control for the full effect not named in the record | Potency, µM (series often up to 92.2 µM), for inactives: at the highest dose activity change, negative = less growth; active = well fitted falling curve with a large enough effect; inconclusive = small, poorly fitted or top-dose-only effect; inactive = no such curve, though single readings can be large or run the other way;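 further: on the % scale 0 is the no-effect control and ±100 the full control effect; nearly all actives have a fitted effect of over 50% in size; the assay follows cell death caused by Vpr and the record does not say whether a fall means rescue or toxicity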
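Fission yeast strain RE007, carrying one chromosomally integrated HIV-1 vpr copy, was seeded at OD 0.01 in PMG+AL medium with 23 nL pinned compound. After 24 h at 30 °C and 99% humidity, viability was read by BacTiter-Glo luminescence.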
NS1 inh = blocks influenza NS1 protein function. actives 0.4% (n = 270,000). S. cerevisiae slowed by influenza A NS1, growth recovery by OD600. Potency, µM (titrated, usually from 46.1 µM), for the others: top-dose activity, positive = more growth. AID 2326; active means well fitted rising curve with a large enough effect; inconclusive means small, poorly fitted or top-dose-only effect; inactive means no such curve, though single readings can be large or run the other way; further: nearly all actives have a fitted effect of over 50% in size
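Read-out: OD600 growth recovery of NS1-expressing budding yeast. Cells grown overnight at 30C in -URA glucose medium, washed, resuspended and diluted 1:100 in 2% galactose assay medium, pH 6.0. Same strain lacking NS1 served as positive control.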
StopGo reporter = lowers the luciferase signal of an FMDV 2A StopGo reporter | human cells with a luciferase reporter of 2A StopGo recoding; control for the full effect not named in the record | Potency, µM (doses to about 57.9 µM), for inactives: at the top dose signal change, negative = less light | actives 1.2% (n = 410,000) | AID 1159524; active = well fitted falling curve with a large enough effect; inconclusive = small, poorly fitted or top-dose-only effect; inactive = no such curve, though single readings can be large or run the other way; tested in HEK293T cells; further: on the % scale 0 is the no-effect control and ±100 the full control effect; nearly all actives have a fitted effect of over 45% in size; luciferase light after 4 h
SARS PLP yeast = blocks SARS-CoV papain-like protease in a yeast assay. S. cerevisiae expressing SARS-CoV PLpro, growth rescue; control for the full effect not named in the record. Potency, µM (highest dose often 32.9 µM), without a hit: at the highest dose activity, positive = growth rescue. actives 0.19% (n = 330,000); active means well fitted rising curve with a large enough effect; inconclusive means small, poorly fitted or top-dose-only effect; inactive means no such curve, though single readings can be large or run the other way; further: 0% is about no effect; nearly all actives have a fitted effect of over 55% in size; growth read by luminescence after 48 h
Cruzain inh noDet = inhibitors of Trypanosoma cruzi cruzain without detergent; P25779; purified cruzain, Z-FR-AMC fluorescence, no detergent; AID 1476; actives 2.3% (n = 200,000); Potency, µM, without a hit: max response, negative = inhibition, usual class: inhibitors;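 further: plate controls were enzyme without inhibitor for no effect and buffer without enzyme for full effect; nearly all actives have a fitted effect of over 40% in size; top concentration of the series not given in the record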
Target sequence (P25779 123-467 limits assumed): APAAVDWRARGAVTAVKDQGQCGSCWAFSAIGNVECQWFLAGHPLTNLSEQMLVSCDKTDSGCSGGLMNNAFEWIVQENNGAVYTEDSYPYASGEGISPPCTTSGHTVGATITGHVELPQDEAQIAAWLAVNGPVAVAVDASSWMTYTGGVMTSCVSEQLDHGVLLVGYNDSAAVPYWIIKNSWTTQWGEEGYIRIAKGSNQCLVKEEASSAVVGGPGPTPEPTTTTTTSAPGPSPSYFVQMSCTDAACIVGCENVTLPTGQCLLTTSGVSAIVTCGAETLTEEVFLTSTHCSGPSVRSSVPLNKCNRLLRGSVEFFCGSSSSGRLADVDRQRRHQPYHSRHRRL
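Detergent-free condition (0.00005% Triton X-100) in acetate buffer pH 5.5 with DTT. 1.5 nM enzyme and compound were pre-mixed 15 min, then 2 uM Z-FR-AMC substrate added; reaction progress from fluorescence change between first and third reads (60 s).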
Lassa entry inh = inhibitors of Lassa virus binding or cell entry | Lassa virus pseudotype entry inhibition, cell reporter; control for the full effect not named in the record | Potency, µM (top dose mostly 37.9 µM), without a hit: top-dose activity change, negative = inhibition, hits mostly inhibitors | actives 1.2% (n = 300,000); active means well fitted inhibition curve with a large enough effect; inconclusive means small, poorly fitted or top-dose-only effect, or effect the other way; inactive means flat fitted curve, though single readings scatter; tested in HEK293 cells; further: on the % scale 0 is the no-effect control and ±100 the full control effect; nearly all actives have a fitted effect of over 50% in size; luciferase read-out
Marburg entry inh = inhibitors of Marburg virus binding or cell entry | Marburg virus pseudotyped entry inhibition, cell reporter; control for the full effect not named in the record; about a third of the inactives were read at about 46 µM | actives 1.8% (n = 300,000) | Potency, µM (top dose mostly 37.8 µM), for the others: top-dose activity change, negative = inhibition, hits mostly inhibitors; active = well fitted inhibition curve with a large enough effect; inconclusive = small, poorly fitted or top-dose-only effect, or effect the other way; inactive = flat fitted curve, though single readings scatter; tested in HEK293 cells; about a fifth of its hits are not listed in these tables; further: on the % scale 0 is the no-effect control and ±100 the full control effect; luciferase read-out
Cruzain Triton = inhibitors of Trypanosoma cruzi cruzain with detergent | actives 0.43% (n = 200,000) | P25779 | Potency, µM, inactives show max response, negative = inhibition, hits mostly inhibitors | AID 1478 | purified cruzain, Z-FR-AMC fluorescence, 0.01% Triton;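 further: plate controls were neutral wells for no effect and buffer without enzyme for full effect; nearly all actives have a fitted effect of over 40% in size; top concentration of the series not given in the record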
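Sodium acetate buffer (100 mM, pH 5.5) containing 5 mM DTT and 0.01% Triton X-100 hosted 1.5 nM cruzain and test compound for 15 min at room temperature. Cleavage of 2 uM Z-FR-AMC was then tracked by fluorescence.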
Active calls of the source: *; ? = inconclusive; / = no result given; & = joins results of further samples; [ ] = remark or other dose. Unless noted, the call rests on the fitted dose curve; in most records, active means well fitted curve in the direction sought with a large enough effect; inconclusive means small, poorly fitted or top-dose-only effect, or another doubt; inactive means no such curve, though single readings can be large; an effect the other way counts as inactive or inconclusive. Potency means the concentration at half of the fitted maximal effect. Rows are unselected. Share with any hit: about 4.8%.

SMILES	RE007 growth inh	NS1 inh	StopGo reporter	SARS PLP yeast	Cruzain inh noDet	Lassa entry inh	Marburg entry inh	Cruzain Triton
CCOC(=O)c1[nH]c(C)c(CCC(=O)NCc2cccc(Cl)c2)c1C	/	/	21%	/	-5%	-5%[46.1 µM]	/	4.2%
CC(=O)Nc1c(C)cc(S(C)(=O)=O)cc1C	-4%	6%	2%	0%	2%	-2%	9%	-0.2%
Cc1ccc(CCNC(=O)c2cc(C)nn2-c2ccccc2)cc1	-5%	-5%	-12%	-2%	/	/	/	/
CC(=O)Nc1nc2n(n1)C(c1ccc(Cl)cc1)C=C(C)N2 (stereo not given)	-4%	4%	2%	4%	8%	15%	-1%	-5.3%
O=C1C2CC=CCC2C(=O)N1Cc1ccccc1Cl (stereo not given)	/	8%	-18%	-5%	12%	4%	0%	-0.1%
COc1ccc(S(=O)(=O)N(CCc2ccccc2)CC(=O)N2CCOCC2)cc1	-3%	-6%	65%[activator]	1%	6%	-19%	-18%	0.7%
CCC(=O)Nc1cc2nn(-c3ccc(C)cc3)nc2cc1C	-14%	/	6.3µM*	1%	10%	?	?	-0.1%
COc1ccc(F)cc1CN1CCN(c2ncnc3scc(-c4ccccc4)c23)CC1	2%	0%	?	0%	/	?	?	/
CCc1nn(CC(=O)N2CCN(c3ccc(OC)cc3)CC2)c(=O)c2cc3occc3n12	3%	14%	-18%	-1%	/	5%[46.1 µM]	1%[46.1 µM]	/
CCCCN(C)CCCNC(=O)c1cc(-c2ccc(Br)s2)nc2ccccc12	/	/	-9%	/	-7%	?	13%[46.1 µM]	-1.1%
O=C(CN1CCN(S(=O)(=O)c2ccc(F)cc2)CC1)N1CCOCC1	5%	0%	-2%	4%	/	1%	-1%	/
Cc1c(Cl)ccc2sc(NC(=O)C3CC3)nc12	1%	-48%	-5%	-13%	/	/	/	/
CCc1ccccc1NC(=O)Cn1nc(C(F)(F)F)c2c1CCCC2	/	/	-10%	/	-3%	-8%[46.1 µM]	-1%[46.1 µM]	-2.8%
CC(NC(=O)Cc1ccccc1)c1nc2ccccc2[nH]1 (stereo not given)	-6%	?	-24%	2%	-22%	/	/	1.0%
COc1cc(/C=N/Nc2nc(C)cc(C)n2)cc(OC)c1OC	3%	15%	53%[activator]	3%	/	/	/	/
CC(C)CNC(=O)/C=C/c1cccs1	3%	-1%	28%	6%	9%	23%	20%	0.1%
CC(=O)c1cccc(NC(=O)CCCN(C)S(=O)(=O)c2ccc(F)cc2)c1	-5%	8%	-24%	13%	/	-19%[46.1 µM]	9%[46.1 µM]	/
O=C(Nc1sc2c(c1C(=O)NCCCO)CCCC2)c1ccccc1	-16%	-16%	18%	1%	/	-9%[46.1 µM]	-8%[46.1 µM]	/
CN1CCN(C(c2cccs2)c2nnnn2Cc2ccc(F)cc2)CC1 (stereo not given)	-4%	2%	6%	0%	/	1%	2%[46.1 µM]	/
CCOc1cccc(CN2CCCC(N3CCc4cc(OC)c(OC)cc4C3)C2)c1O (stereo not given)	-10%	11%	-9%	4%	/	17%[46.1 µM]	9%[46.1 µM]	/
COc1ccccc1/C=C/C(=O)OCC(=O)NC1CC1	13%	/	-11%	1%	/	2%	4%[46.1 µM]	/
Oc1[nH]c2ccccc2c1N=Nc1ccc(C(F)(F)F)cn1	-16%	-1%	42%[activator]	-4%	-10%	0%	?	-0.6%
Cc1[nH]c2ccccc2c1C(=O)COC(=O)c1c(-c2ccccc2)noc1C	2%	12%	-23%	-8%	-19%	?	?	-6.6%
COCCCn1c(=S)[nH]c2c(sc3ccccc32)c1=O	-10%	/	27%	1%	/	25%	13%[46.1 µM]	/
C=CCNC(=O)NC(=O)COC(=O)/C(C#N)=C/c1cc(C)n(CC(C)C)c1C	-6%	-3%	21%	-3%	?	?	-1%	-8.2%
COc1cc(OC)c(NC(=O)c2ccc3c(Cl)c4c(nc3c2)CCCC4)cc1Cl	/	/	-16%	/	-1%	11%[46.1 µM]	12%[46.1 µM]	4.8%
CN(Cc1cccs1)C(=O)c1ccc(Cl)c(S(=O)(=O)N2CCCCCC2)c1	-20%	/	3%	4%	/	?	?	/
OC1/C(=C/c2ccccc2F)N2CCC1CC2 (stereo not given)	1%	3%	-15%	0%	/	?	?	/
COC(=O)c1cc(S(=O)(=O)n2nc(C)cc2C)c(Cl)cc1Cl	-2%	9%	-19%	3%	-4%	5%	22%	-1.5%
Cc1ccc(Nc2nc(-c3ccc(O)cc3O)cs2)nc1	?	6%	20%	-3%	/	?	4.5µM*	/
Cc1c(C(=O)c2ccc(Cl)cc2[N+](=O)[O-])c2ccccn2c1CCC#N	-2%	10%	-2%	-2%	-9%	-20%	?	-7.4%
O=P(O)(CP(=O)(c1ccccc1)c1ccccc1)c1ccccc1	27%	-3%	18%	14%	2%	17%	-1%[46.1 µM]	3.9%
COc1cccc(NC(=O)Nc2ccc3nc(N4CCN(C)CC4)cc(C)c3c2)c1	/	/	7%	/	-3%	-12%[46.1 µM]	/	-0.4%
CCc1n(CC(O)COCC2CC=CCC2)c2ccccc2[n+]1C (stereo not given)	-11%	1%	-5%	-1%	/	7%	?	/
COc1ccc2nc(SCC(=O)NC(C)C)[nH]c2c1	31%	3%	29%	-1%	-10%	-1%	-17%[46.1 µM]	3.9%
CC(C)COc1cccc(-c2cc(C(=O)Nc3ccon3)c3ccccc3n2)c1	-10%	22%	-20%	-7%	/	-7%	?	/
Cc1cc(=O)oc2cc(O)cc(OCc3ccccc3)c12	-19%	/	-14%	/	/	-8%	6%	/
O=C(O)c1cc(S(=O)(=O)N2CCN(S(=O)(=O)c3ccccc3)CC2)ccc1Cl	-5%	0%	-2%	-1%	/	/	/	/
COc1ccc(N/C(=N/c2nc(C)cc(C)n2)NC(=O)c2ccccc2)cc1	26%	10%	6%	-2%	/	23%[46.1 µM]	0%[46.1 µM]	/
CCCCN(C)CCCNC(=O)c1cn(CC)c2ccc(S(=O)(=O)N3CCc4ccccc4C3)cc2c1=O	5%	/	-17%&-26%	2%	-7%	-13%	5.6µM*	-2.1%
COc1ccc(NC2CCCN(C(=O)c3ccc(C(C)=O)cc3)C2)cc1 (stereo not given)	2%	14%	-10%	-3%	/	/	/	/
CCOCCCNC1=C(Cl)C(=O)c2ccccc2C1=O	?	-54%	24%	-5%	/	/	/	/
O=c1[nH]c2c(c(=O)n1C1CCCCC1)CCC2	9%	-4%	18%	-3%	6%	5%	25%	0.8%
CCOC(=O)Cn1nnnc1C	-11%	/	-1%	-2%	/	-23%	11%[46.1 µM]	/
CC(=O)C1=C(C)NC(SCC(=O)Nc2nccs2)=C(C#N)C1c1ccccc1Cl (stereo not given)	1%	23%	?	-5%	-4%	?	-14%	-7.0%
CC(C)CCCN1C(Nc2ccccc2)=NC[C@@H]1Cc1ccccc1	3%	-2%	-25%	-6%	/	/	/	/
CCOc1ccc(S(=O)(=O)N(CC(=O)N/N=C/c2cccs2)c2ccc(C)cc2)cc1	10%	-8%	/	1%	?	?	?	-9.5%
N=C(N)CCCOc1ccccc1-c1ccccc1	2%	13%	-19%	-18%	-7%	-4%	?	-0.8%
COc1cc2c(=O)n(Cc3ccco3)c(=O)n(CC(=O)Nc3ccc(F)cc3)c2cc1OC	/	/	10%	/	5%	-8%[46.1 µM]	-10%[46.1 µM]	-4.0%
CCCc1c(O)nc(SCC(=O)NCc2ccco2)[nH]c1=O	12%	/	-4%	-4%	/	6%[46.1 µM]	9%[46.1 µM]	/
O=C(CSc1ccccc1)NCC1(N2CCOCC2)CCCCC1	?	/	0%	/	/	1%	-29%	/
COc1ccc(CCNC(=O)c2ccc3c(c2)CCN3S(C)(=O)=O)cc1	/	/	-8%	/	-7%	-1%[46.1 µM]	-18%[46.1 µM]	1.6%
O=C(CSc1ncn[nH]1)N1CCCCC1	-2%	-4%	2%	-3%	/	-1%	5%[46.1 µM]	/
Cc1nn(-c2ccccc2)c(C)c1/C=N/NC(=O)c1cc(-c2cccc3ccccc23)n[nH]1	4%	?	-18%	23%	?	?	?	-3.6%
Cc1cccn2c(=O)c(/C=C3\SC(=S)N(CC(C)C)C3=O)c(NCCCOC(C)C)nc12	8%	9%	-2%	-3%	0%	3%	7%	6.0%
O=C(N/N=C/c1ccccn1)c1cccc(S(=O)(=O)Nc2ccccc2Cl)c1	9%	-5%	7%	0%	/	-1%	8%[46.1 µM]	/
COCCN1CCN(C(=O)c2cc(COc3ccc(F)c(F)c3)on2)CC1	-1%	-3%	23%	1%	/	16%	9%	/
COc1cc(NS(=O)(=O)c2ccc(F)cc2)c(OC)cc1NC(=O)C1CC1	/	-6%	/	-42%	4%	/	0%	0.2%
CCCCOC(=O)c1cc(-c2ccc(/C=N/n3cnnc3)o2)ccc1Cl	-6%	/	-19%	/	/	13%	?	/
CC(C)c1ccc(/C=C/C(=O)N2CCc3ccccc3C2)cc1	-9%	4%	2%	11%	-7%	5%	3%	-8.3%
(next part)
SMILES	RE007 growth inh	NS1 inh	StopGo reporter	SARS PLP yeast	Cruzain inh noDet	Lassa entry inh	Marburg entry inh	Cruzain Triton
CCCNC(=O)c1c(N)n(CC2CCCO2)c2nc3ccccc3nc12 (stereo not given)	-15%	-121%	-28%	-38%	?	2%	?	?
COCCOC(=O)C1=C(C)NC(=O)NC1c1c(Cl)nc2ccccn2c1=O (stereo not given)	-1%	-2%	-23%	0%	-1%	-4%	-1%	-5.9%
CC(C(=O)Nc1cccc(C#N)c1)N(C)CCOc1ccccc1 (stereo not given)	-6%	-13%	-9%	-7%	/	1%	-1%[46.1 µM]	/
CC1=C(CC(=O)NCC(=O)NCC(=O)O)c2cc(F)ccc2/C1=C/c1ccc(S(C)=O)cc1 (stereo not given)	-7%	0%	-5%	-2%	/	6%	0%[46.1 µM]	/
